# Source: PubChem BioAssay
# CSC inhib: cancer stem cell inhibition; cancer stem cell-like cells viability, luminescence; inhibition, % at 7.5 µM; 1.1% of 300,000 active; AID 2717;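 active means mean at 75% or more and at least half the replicates too; inconclusive means mean and replicates disagree; tested in HMLE shEcad cells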;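 further: 0% = median of negative and 100% = median of positive control wells; the first replicate is given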
# HIV Env fusion: blocks HIV Env-driven cell-cell fusion; HeLa-JRFL Env/CEM21 cell fusion, luciferase; 1.1% of 360,000 active; inhibition, % at 12.3 µM;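 active means mean replicate inhibition score of at least 50 and every replicate individually at or above 50; inconclusive means only one of the two criteria met; inactive means mean below 50 and not all replicates reaching 50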;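 further: 0% = plate neutral controls and 100% = maraviroc near 300 nM; one replicate is shown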
# eIF4H FP inh: inhibitors of RNA binding by human eIF4H. AID 2012. inhibition, % at 35 µM. eIF4H fluorescence polarization binding assay. Q15056. 0.94% of 290,000 active;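 active means 50% or more with normal probe brightness, or confirmed in later tests; inconclusive means above 50% with abnormal brightness, or retests that disagree; inactive means below 50% or failed in later tests; about a fifth of its hits are not listed in these tables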;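 further: calls also rest on retests at 20 µM and on dose response follow-up; 0% = protein and probe with vehicle and 100% = probe without protein; strong numbers were not always called active; many hits fall short of the cut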
# PABP FP inh: PABP-poly(A) binding inhibition | PABP-poly(A) RNA binding, fluorescence polarization | inhibition, % at 35 µM | 1% of 290,000 active | AID 2014;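 active means 50% or more with normal probe brightness, or confirmed in later tests; inconclusive means above 50% with abnormal brightness, or retests that disagree; inactive means below 50% or failed in later tests; about a fifth of its hits are not listed in these tables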;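 further: calls also rest on retests at 20 µM and on dose response follow-up; controls were probe without protein and protein plus probe with vehicle; some compounds called inactive have numbers as strong as hits; many hits fall short of the cut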
# Rce1 inhib: yeast Ras-converting enzyme inhibition; yeast membranes, quenched prenylated peptide cleavage fluorescence; calls only; 0.27% of 290,000 active;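 active means fall in fluorescence gain of 50% or more versus controls, with final raw signal at or below 3038400; inconclusive means same 50% fall but final raw signal above 3038400; inactive means fall in fluorescence gain under 50%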;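 further: plate controls were neutral control wells for no effect and wells lacking membranes for full effect; tested at 10 µM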
# Target sequence (Q03530 whole entry, looked up): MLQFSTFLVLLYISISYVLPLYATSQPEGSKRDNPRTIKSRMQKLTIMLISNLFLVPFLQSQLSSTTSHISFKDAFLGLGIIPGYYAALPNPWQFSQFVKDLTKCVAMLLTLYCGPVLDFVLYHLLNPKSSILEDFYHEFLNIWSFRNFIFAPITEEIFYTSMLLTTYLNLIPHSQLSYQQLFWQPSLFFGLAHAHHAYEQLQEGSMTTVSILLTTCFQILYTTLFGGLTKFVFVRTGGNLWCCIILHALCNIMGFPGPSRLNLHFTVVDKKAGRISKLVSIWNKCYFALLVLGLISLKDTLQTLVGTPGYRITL
# Yeast UUG start: modulators of start codon recognition fidelity in yeast | S. cerevisiae UUG-firefly luciferase reporter, luminescence/redox ratio | activity score, % at 18.7 µM | 0.13% of 350,000 active | AID 602363;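 active means replicate mean at a twofold rise or more, about +100% in these data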;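 further: firefly luciferase made from a UUG start codon reports start codon fidelity; reporter light over untreated wells divided by growth signal over untreated wells; some hits fall short of that in this replicate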
# MT1-MMP act inh: MT1-MMP (human) activation inhibition; HT1080 RFP-PRO-GFP cells, GFP/RFP ratio fluorescence, overnight; percent of plate control window, DMSO zero; P50281; 0.061% of 360,000 active; AID 651647; GFP/RFP ratio change, % at 20 µM;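 active means GFP/RFP ratio change of at least 30% with cell ATP level not reduced by more than half and red fluorescence within 50% of control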; further: strong numbers were not always called active
#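 Assay system: HT1080 RFP-PRO-GFP cells | Dosing: 20 µM single dose, 1% DMSO | Incubation: Cells overnight before dosing, compound overnight, 37 °C, 5% CO2 | Evaluation: GFP/RFP fluorescence ratio | Control set: DMSO-only wells and HT1080 RFP-L50D-GFP cell wells as references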
# eIF4H FP inh retest: also measured in eIF4H FP inh; calls as there; inhibition, %; compound at 20 µM; confirmation average;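 mean of two retest wells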
# PABP FP inh retest: second read-out of PABP FP inh, no call of its own (marks repeat the call); inhibition, %; compound at 20 µM; confirmation repeats;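 mean of two retest wells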
# MT1-MMP act inh RFP: further read-out of MT1-MMP act inh, marked with its call; RFP signal change, %; measured here: RFP expression control read;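 0 = vehicle wells; hits needed this value within 50% of zero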
# * hit, by the source's call; i = inactive; ? = inconclusive; . = no result given. An excerpt. The share of hits here may be higher or lower than overall.
SMILES,CSC inhib,HIV Env fusion,eIF4H FP inh,PABP FP inh,Rce1 inhib,Yeast UUG start,MT1-MMP act inh,MT1-MMP act inh RFP,others
CSc1ccc(/C=N/Nc2ccc(Cl)c(C(=O)O)c2)cc1,-16,-111,12,4,i,.,2,7,
CC(=O)OCC1OC(n2ncc(=O)n(Cc3ccccc3)c2=O)C(OC(C)=O)C1OC(C)=O (stereo not given),-12,-29,-6,-7,i,-22,3,4,
CN(C)c1ccc(NC(=O)CN2CCN(S(=O)(=O)c3cc(Cl)ccc3Cl)CC2)cc1,11,.,-10,-1,i,2,2,3,
CC(=O)c1c(C)[nH]c(C(=O)NCCc2c[nH]c3ccccc23)c1C,-10,-36,-4,2,i,-1,1,-9,
O=C(CCn1nc(-c2ccc(Cl)cc2)ccc1=O)NCc1ccccn1,7,.,-3,-3,i,.,1,6,
CN(C(=O)c1cc([N+](=O)[O-])ccc1N1CCCC1)C1CCCCC1,5,-6,0,6,i,1,-2,-1,
CN(Cc1ccccc1)C(=S)NC(=O)c1ccc(-c2ccccc2)cc1,1,33,12,-5,i,-33,12,-3,
Cc1c(C(=O)NN2CCN(C)CC2)cccc1[N+](=O)[O-],6,2,0,10,i,-3,3,-2,
CC(=O)c1cccc(NS(=O)(=O)N(C)C)c1,-9,.,7,2,i,2,5,5,
CCN(CC)C(=O)C1=C(C)N(Cc2ccc(F)cc2)C(=O)C(CC(=O)NCCc2ccccn2)C1 (stereo not given),.,3,.,.,.,-17,2,0,
COc1cc(OC)c(OC)cc1CN1CCN(Cc2cccc(F)c2)CC1,-10,5,4,12,i,-5,-2,2,
Cc1nnc(SCC(=O)N2c3ccccc3Sc3ccccc32)n1N,-5,.,-1,-4,i,-8,5,-2,
O=C(COC(=O)/C=C/c1ccccc1Cl)NC(=O)NCc1ccccc1,-6,.,.,.,.,-11,0,4,
O=C(NC1CCCCC1)Sc1ccc(Cl)cc1,-2,.,-8,4,i,-17,0,-3,
N#CC(c1ccc(O)cc1)N1CCCCC1 (stereo not given),-11,-48,5,-3,i,-13,5,8,
CCOCCCNC(=O)Cc1ccc(Br)cc1,-19,.,2,2,i,.,-3,3,
CS(=O)(=O)N(CC(=O)N1CCCC1)c1ccccc1F,-12,-17,-19,-4,i,-6,0,3,
O=C1N=c2ccccc2=C1c1c(O)[nH]c2c(C(F)(F)F)cccc12,-18,15,34,14,i,-8,2,2,
COc1cc(OC)c(C(=O)Nc2cccc(C(C)=O)c2)cc1OC,4,.,-3,7,i,-5,9,6,
CC(C)(C)OC(=O)[C@H](CCCCN)NC(=O)c1nc[nH]c1C(=O)N[C@@H](CCCCN)C(=O)OC(C)(C)C,-5,-12,.,.,.,-12,1,-3,
Cc1ccc(C2C=C(c3ccccc3OC(F)F)Nc3ncnn32)cc1 (stereo not given),24,.,7,7,i,-19,-5,-4,
Cc1cc(Nc2ccccc2)n(CCC#N)n1,.,.,-4,3,i,1,-1,2,
COc1cc(C(=O)N(Cc2cccnc2)Cc2cc3cc4c(cc3[nH]c2=O)OCCO4)cc(OC)c1OC,5,1,-6,-3,i,-6,6,3,
CC1(C)CC(=O)C2=C(C1)OC1=C(C2)C(=O)CC(C)(C)C1,.,.,-6,-1,i,.,1,5,
O=C(NCCOCCOCCNC(=O)c1ccccc1)c1ccccc1,-5,-10,8,1,.,.,1,7,
O=C(c1cc(Sc2ccc(Cl)cc2)nc2ccccc12)N1CCN(c2ccccn2)CC1,51,5,-15,15,.,1,-7,-7,
CC1CN(CC(=O)Nc2ccc(Br)cn2)CC(C)O1 (stereo not given),-13,-6,22,22,i,-8,-1,-4,
O=C(NCc1ccccc1Cl)c1csc2c1CCCCC2,5,-17,-2,-4,i,5,5,-5,
COc1ccc(-c2nc(C)sc2CC(=O)O)cc1OC,5,6,-14,-3,i,.,1,2,
COc1ccc(-c2cc(=O)oc3cc(OC(C)C(=O)Nc4ccc(CN5CCOCC5)cc4)ccc23)cc1 (stereo not given),-31,-4,-23,-13,i,-10,2,-5,
CC(=O)Nc1ccc(-c2csc(-c3cccnc3)n2)cc1,1,-96,-18,-4,i,-26,4,4,
O=C1CCc2cc(S(=O)(=O)N3CCC(C(=O)NCc4ccccn4)CC3)ccc2N1,-6,23,7,-14,i,-18,-5,3,
Cn1c(SCC(=O)NCc2ccc3c(c2)OCO3)nnc1-c1c[nH]c2ccccc12,-9,.,-11,2,i,3,-5,-1,
O=C(NCc1cccnc1)c1cn(CCc2ccccc2)nn1,-7,.,-2,-13,.,-15,0,-5,
COc1cccc(NC(=O)COC(=O)CCS(=O)(=O)c2ccc(C)cc2)c1,2,1,-3,-24,i,.,1,0,
Nc1nc(NC(=O)C(Cl)(Cl)Cl)nn1-c1ccccc1,-9,.,6,0,i,-16,-5,-6,
CC1(C)CC2CC(C)(CN2S(=O)(=O)c2cccc(C(=O)OCC(N)=O)c2)C1 (stereo not given),-1,20,.,.,i,.,2,-5,
CCn1c(=O)c2ccccc2n2c(SCC(=O)N3CCCc4ccccc43)nnc12,2,.,.,.,i,-9,-4,6,
CC(C)N(Cc1ccccc1)C(=O)c1ccc2c(c1)OCO2,-1,.,-7,0,i,-4,3,4,
Cc1cc(S(=O)(=O)NCCc2ccccc2)c(C)s1,-8,-29,-10,1,i,-21,5,-3,

# Retrieved by structure from the list above (2):
SMILES,CSC inhib,HIV Env fusion,eIF4H FP inh,PABP FP inh,Rce1 inhib,Yeast UUG start,MT1-MMP act inh,MT1-MMP act inh RFP,others
COc1cc(OC)c(C(=O)Nc2cccc(C(C)=O)c2)cc1OC,4,.,-3,7,i,-5,9,6,
CC(=O)c1c(C)[nH]c(C(=O)NCCc2c[nH]c3ccccc23)c1C,-10,-36,-4,2,i,-1,1,-9,

# New compounds follow:
SMILES,CSC inhib,HIV Env fusion,eIF4H FP inh,PABP FP inh,Rce1 inhib,Yeast UUG start,MT1-MMP act inh,MT1-MMP act inh RFP,others
CCC(=O)N1CCC1(C)C(=O)Nc1ccc2scnc2c1 (stereo not given),.,-14,.,.,.,-12,-2,-1,
Cc1cc(=O)oc2c(CN(CC(C)C)CC(C)C)c(O)ccc12,4,-8,13,2,?,.,.,.,
CCCC(=O)NC(c1ccccc1OC)c1ccc2cccnc2c1O (stereo not given),119*,.,9,-6,i,.,7,-4,
O=C(Nc1ccc(Oc2ccc(Cl)cc2)c(Cl)c1)c1cc(I)cc(I)c1O,100*,14,20,73,i,-20,7,-30,eIF4H FP inh retest=5;PABP FP inh retest=25
NC(=O)COC(=O)C(Cc1ccccc1)NS(=O)(=O)c1ccccc1F (stereo not given),-18,-24,2,-3,i,0,8,5,
Cc1ccccc1N(CC(=O)N1CCOCC1)S(C)(=O)=O,-7,23,4,-5,i,.,-1,2,
Cc1c(C(=O)Nc2ccc(Cl)cc2)c2ccccn2c1C(=O)c1ccccc1,.,-57,17,-4,i,-19,0,-7,
O=C(c1cccc(C(F)(F)F)c1)C1CCCN(C(=O)CCc2cnccn2)C1 (stereo not given),-2,32,-17,4,i,.,-4,-9,
CCn1cc(/C=N\NC(=O)c2c[nH]c3ccccc23)c(C)n1,.,-23,6,18,i,.,7,8,
O=C1Nc2ccccc2CCc2ccccc21,-15,.,.,.,.,-16,0,2,
CN(C)CCn1c2c(c(SCC(=O)Nc3ccccc3C(F)(F)F)nc1=O)CCCC2,3,-1,.,.,i,-14,0,3,
CCOC(=O)c1[nH]c(C)c(C(=O)N2CCN(c3ccccc3)CC2)c1C,-12,12,9,17,i,-13,-8,-1,
CN1CC[C@@H]2C(=O)N3CCc4ccc(-c5ccc6c(c5)OCO6)cc4[C@@H]3C[C@@H]21,.,-8,.,.,.,-26,1,-5,
CCCCC(C(=O)OCC)C(N)Cc1ccc(F)cc1 (stereo not given),-6,5,?,-4,i,.,1,1,
CCN=C1S/C(=C\c2ccc(OCC)c(OC)c2)C(=O)N1CC,24,8,-11,-18,.,.,3,-6,
O=S(=O)(Nc1ccc(Cl)nn1)c1ccccc1,-7,2,-4,-3,i,.,-3,-6,
Cn1c(SCc2c(Cl)cccc2Cl)nnc1-c1ccc2nonc2c1,-7,5,-3,-3,i,-15,2,-3,
COC(=O)c1ccc(C(C(=O)NC2CCCCC2)N(Cc2ccccc2)C(=O)Cc2cccs2)cc1 (stereo not given),13,4,-3,7,i,.,-7,-7,
O=C(COC(=O)CCSc1ccccc1)Nc1ccccc1,-1,.,.,.,.,-12,5,2,
Cn1c(N)c(C(=O)COC(=O)CCCc2nc3ccccc3s2)c(=O)n(C)c1=O,3,16,2,2,i,.,0,-2,
CC1CN(C(=O)c2cc(-c3ccncc3)nc3ccccc23)CC(C)O1 (stereo not given),-16,.,.,.,.,-11,-1,2,
CCOC(=O)C(CC)Sc1nc2c(c(=O)[nH]c(=O)n2C)n1C/C=C(/C)Cl (stereo not given),-7,.,-9,-8,i,-10,3,1,
O=C(O)COc1ccccc1C=NNc1ccc([N+](=O)[O-])cc1S(=O)(=O)Nc1ccc(Cl)cc1,17,34,.,.,.,21,1,-4,
Cc1c(-c2ccccc2)nc2ccccc2c1C(=O)O,5,.,6,10,i,-16,-2,2,
Clc1ccc(SCCn2ccnc2)cc1,-7,.,-8,20,i,-2,-2,0,
Clc1ccccc1-c1ccc2ncnc(NCc3ccc4c(c3)OCO4)c2c1,29,17,.,.,.,-1,4,6,
O=C(CN1C(=O)COc2ccc(Cl)cc21)N1CCc2ccccc21,.,18,2,-4,i,-12,9,1,
O=C(Nc1ccccc1Cl)c1ccc(S(=O)(=O)NCC2CCCO2)cc1 (stereo not given),.,-3,-9,-5,i,-10,-1,-5,
O=C(Nc1ccc(OC(F)(F)F)cc1)Oc1ccccc1N1CCOCC1,9,37,-2,8,i,.,-1,-1,
CN(C)c1cccc(C(=O)OCc2cc(=O)oc3cc(O)ccc23)c1,31,-15,88*,70*,i,2,-2,6,
CCN(C(=O)C1CCN(S(=O)(=O)c2ccc3c(c2)oc(=O)n3C)CC1)c1cccc(C)c1,-8,-18,-4,-2,i,-26,-2,0,
CC(C)N1C/C(=C/c2ccsc2)C(=O)/C(=C/c2ccsc2)C1,22,-277,-2,7,i,3,0,2,
Cn1c(N/N=C/c2cccs2)nc2c1c(=O)n(Cc1ccccc1)c(=O)n2C,16,-22,5,0,i,-15,3,-2,
COC(=O)COc1ccc(S(=O)(=O)Nc2cc([N+](=O)[O-])ccc2C)cc1,-13,16,-13,-25,i,.,1,5,
CCOC(=O)[C@@H]1C(c2c(OC)cc(OC)cc2OC)=NO[C@@H]1C(=O)OCC,-1,15,-2,2,i,.,3,3,
COc1cc(NC(=S)NNC(=O)C(C)(C)O)cc(OC)c1,2,-15,2,-2,.,.,-2,3,
CN(CC(=O)Nc1cccc2c1CCCC2)S(=O)(=O)c1ccc(Cl)cc1,-10,11,-5,6,i,23,2,-2,
Cc1ccc(NC(=O)CNC(=O)N2CC(=O)Nc3ccccc32)cc1F,-7,2,2,-1,i,-20,3,2,
Cc1cc(C)c(C#N)c(SCc2ccccc2C(=O)O)n1,2,.,0,0,.,-9,-2,-1,
Cc1ccc(C(=O)OCCN2CCN(c3ncc(C(F)(F)F)cc3Cl)CC2)cc1,.,.,0,-4,i,-12,1,3,
O=C(NCCc1ccccc1F)c1cc(COc2ccc(F)cc2F)on1,.,-16,.,.,.,7,2,1,
